NPYLR7 ag = activates Aedes aegypti NPYLR7 receptor; 270,000 compounds, 0.15% hits; activation, % at 10 µM; HEK293T NPYLR7/Galpha15, GCaMP6s calcium fluorescence; in the data active = activation above about 40%;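 note: 0% = vehicle and 100% = reference agonist at the receptor; some compounds past the cut are filed as inactive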
NPYLR7 ag max-min = also measured in NPYLR7 ag; calls as there; activation, %; measured here: Max-Min RFU normalised activation; some inactives read as strong as hits;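 span of the calcium signal over five minutes; 0% = vehicle and 100% = native peptide agonist; compound fluorescence can raise it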
Numbers without * were called inactive; & = joins results of further samples. This is a subset; the hit share may differ from the screen's.

What do the screens show for `Cc1ccc(-c2nc3ccc(F)cc3n2C(C)C)cc1N`?
NPYLR7 ag: 0; NPYLR7 ag max-min: -9

What do the screens show for `CCOc1ccc(C(=O)c2c(N)c(C(=O)Nc3ccccc3CC)c3ccccn23)cc1`?
NPYLR7 ag: -2; NPYLR7 ag max-min: -10

How did CC(=O)N1CCCn2nc(C(=O)NCC(c3ccc(C)o3)N(C)C)cc2C1 (stereo not drawn) do in these assays?
NPYLR7 ag: 3; NPYLR7 ag max-min: 1

Results for Cc1ccoc1C(=O)N1CCC(Oc2ccc(C(=O)NCCN(C)C)cc2Cl)CC1 ?
NPYLR7 ag: 1; NPYLR7 ag max-min: -2

Results for O=C1c2ccccc2-c2onc3c(Br)cc(O)c1c23 ?
NPYLR7 ag: -3; NPYLR7 ag max-min: -7

What do the screens show for `CC(=O)Nc1ccc(CN2CCN(Cc3ccccc3F)C(CCO)C2)cc1` (stereo not drawn)?
NPYLR7 ag: 7; NPYLR7 ag max-min: -6

What do the screens show for `COc1ccc(CCN2CCC(CN(C)C(=O)C3CCOC(C)(C)C3)CC2)cc1` (stereo not drawn)?
NPYLR7 ag: 6; NPYLR7 ag max-min: 3

What do the screens show for `O=C(Cn1ncc(Cl)c(Cl)c1=O)N(Cc1ccco1)CC(F)(F)F`?
NPYLR7 ag: 0; NPYLR7 ag max-min: -1

How did COc1ccc(C(=O)N2CCC(OCC3=CCCN(C)C3)CC2)cc1 do in these assays?
NPYLR7 ag: 17; NPYLR7 ag max-min: 17

How did O=C(OCC1CC2CCC1C2)c1cc(S(=O)(=O)N2CCOCC2)c[nH]1 (stereo not drawn) do in these assays?
NPYLR7 ag: -7; NPYLR7 ag max-min: -8

Results for Cn1cc(CN2CCCC(CNC(=O)c3ccc(F)cc3)C2)c(-c2ccccc2)n1 (stereo not drawn) ?
NPYLR7 ag: 5&16; NPYLR7 ag max-min: -1&1

Results for N#Cc1cc(F)ccc1NC1CCN(S(=O)(=O)C2CC2)CC1 ?
NPYLR7 ag: -20; NPYLR7 ag max-min: -20

Compounds from the list above with sulfur:
How did O=C(OCC1CC2CCC1C2)c1cc(S(=O)(=O)N2CCOCC2)c[nH]1 (stereo not drawn) do in these assays?
NPYLR7 ag: -7; NPYLR7 ag max-min: -8

Results for N#Cc1cc(F)ccc1NC1CCN(S(=O)(=O)C2CC2)CC1 ?
NPYLR7 ag: -20; NPYLR7 ag max-min: -20

Next section:
How did CCOC1CC(N(C)C(=O)c2cnn(C)c2C(F)F)C12CCCC2 (stereo not drawn) do in these assays?
NPYLR7 ag: 13; NPYLR7 ag max-min: 9

How did CCN(C(=O)c1cc(-c2c(C)nn(C)c2C)n[nH]1)c1nc(C)cs1 do in these assays?
NPYLR7 ag: 8; NPYLR7 ag max-min: 5

What do the screens show for `COCCN(CC(=O)N(Cc1ccccc1)Cc1sccc1C)C(=O)Nc1cccc(F)c1`?
NPYLR7 ag: 18; NPYLR7 ag max-min: 20

Results for Cc1cc(C)cc(NC(=O)CSc2nnc(CCC(=O)O)c(=O)[nH]2)c1 ?
NPYLR7 ag: 10; NPYLR7 ag max-min: 5

What do the screens show for `CC(=O)N1CCc2c(sc(NC(=O)Cc3ccc(C)cc3C)c2C#N)C1`?
NPYLR7 ag: 8; NPYLR7 ag max-min: 1

Results for CCOCCCN(CC(=O)N(Cc1cccn1Cc1ccccc1Cl)CC(C)C)C(=O)c1cc(Cl)cc(Cl)c1 ?
NPYLR7 ag: -4; NPYLR7 ag max-min: 3

Results for CN(C)Cc1ccc(S(=O)(=O)n2ccc(/C=C/C(=O)NO)c2)cc1 ?
NPYLR7 ag: 0; NPYLR7 ag max-min: -7

Results for O=C(NCc1ccncc1)c1ccc(-c2ccc(C3CCCCC3)cc2)s1 ?
NPYLR7 ag: 1; NPYLR7 ag max-min: 19

Results for CC(=O)N1C2=C(CCCC2)C(=O)NC12CCCCC2 ?
NPYLR7 ag: 9; NPYLR7 ag max-min: 6

Results for COc1ccc(NC(=O)CCNc2nc(-c3cccc(Br)c3)nc3ccccc23)cc1 ?
NPYLR7 ag: 19; NPYLR7 ag max-min: 25

How did CCc1cc[n+](CC(=O)Nc2cccc(NC(C)=O)c2)cc1 do in these assays?
NPYLR7 ag: 3; NPYLR7 ag max-min: 0

What do the screens show for `Cn1c(=O)[nH]c(=O)c2c1nc(N1CCN(CCO)CC1)n2CCCc1ccccc1`?
NPYLR7 ag: 14; NPYLR7 ag max-min: 13

Results for COC(=O)N[C@@H]1CC2=C(CCCC2)C[C@H]1I ?
NPYLR7 ag: -4; NPYLR7 ag max-min: -5

What do the screens show for `Nc1c(C(=O)Nc2cccc(F)c2)c2ccccn2c1C(=O)c1ccccc1`?
NPYLR7 ag: 1; NPYLR7 ag max-min: 13

Results for O=C(Nc1ccc(-c2ccccc2)cc1)C1CC=CCC1C(=O)N1CCc2c([nH]c3ccccc23)C1 (stereo not drawn) ?
NPYLR7 ag: -2; NPYLR7 ag max-min: -6

What do the screens show for `CN(CCCN1c2ccccc2CCc2ccccc21)C(=O)c1cn[nH]n1`?
NPYLR7 ag: 3; NPYLR7 ag max-min: 5

How did C=CCn1c(Cl)nc2c1c(=O)n(C)c(=O)n2C do in these assays?
NPYLR7 ag: 2; NPYLR7 ag max-min: -2

Results for C/C(=C\c1ccccc1)C1Nc2ccccc2C(=O)N1CC1COC(C)(C)O1 (stereo not drawn) ?
NPYLR7 ag: -2; NPYLR7 ag max-min: -4

What do the screens show for `COc1ccccc1C(NC(=O)C1CCN(CCCN(C)S(C)(=O)=O)CC1)c1ccccn1` (stereo not drawn)?
NPYLR7 ag: 6; NPYLR7 ag max-min: 7

Results for CCC(NC(=O)C1CCN(C(C)=O)CC1)c1ncccc1C (stereo not drawn) ?
NPYLR7 ag: -4; NPYLR7 ag max-min: -6

How did COc1ccc(S(=O)(=O)NCCOc2ccc3nnc(-c4ccccc4)n3n2)cc1 do in these assays?
NPYLR7 ag: -3; NPYLR7 ag max-min: -4

What do the screens show for `O=C(NCc1ccccc1)N1CCCN(c2nc(Cc3ccccc3)nc3onc(-c4ccccc4)c23)CC1`?
NPYLR7 ag: 7; NPYLR7 ag max-min: 12

What do the screens show for `Nn1c(SCC(=O)Nc2ccc(Cl)c(C(F)(F)F)c2)nnc1-c1ccncc1`?
NPYLR7 ag: 10; NPYLR7 ag max-min: 3

Results for O=C(CSc1nc(=O)n(CCO)c2c1CCC2)NCc1ccc(F)cc1 ?
NPYLR7 ag: -2; NPYLR7 ag max-min: -10

Already shown: two of the compounds above.
What do the screens show for `Cc1ccc(-c2nc3ccc(F)cc3n2C(C)C)cc1N`?
NPYLR7 ag: 0; NPYLR7 ag max-min: -9

What do the screens show for `CCOc1ccc(C(=O)c2c(N)c(C(=O)Nc3ccccc3CC)c3ccccn23)cc1`?
NPYLR7 ag: -2; NPYLR7 ag max-min: -10

Following part.
What do the screens show for `Cc1cn2c3c(=O)[nH]c(=O)n(C)c3nc2n1CCNc1ccc(Oc2ccccc2)cc1`?
NPYLR7 ag: 1; NPYLR7 ag max-min: 16

What do the screens show for `CCC(C)NC(=O)c1cnc(N2CCN(c3ncccn3)CC2)[nH]c1=O` (stereo not drawn)?
NPYLR7 ag: 6; NPYLR7 ag max-min: 6

How did CC(C)NC(=O)N(Cc1ccc(C(F)(F)F)cc1)c1ccc(CC(=O)NCCN2CCCC2)cc1 do in these assays?
NPYLR7 ag: 4; NPYLR7 ag max-min: 1

Results for COC(=O)c1ccc(C=Nc2cc(C)cc(C)c2O)cc1 ?
NPYLR7 ag: 1; NPYLR7 ag max-min: -3

What do the screens show for `Cc1cc(CNC(=O)CCCn2cncn2)c2[nH]c(-c3ccccc3)c(C)c2c1`?
NPYLR7 ag: 7; NPYLR7 ag max-min: -3

How did CCCCS(=O)(=O)N1CCN(c2ccc(NC(=O)COC)cn2)CC1 do in these assays?
NPYLR7 ag: 0; NPYLR7 ag max-min: 4

What do the screens show for `O=C(NNC(=O)c1ccco1)c1ccc(=O)n(Cc2ccccc2)c1`?
NPYLR7 ag: -8; NPYLR7 ag max-min: -14

What do the screens show for `O=C(CNC(=O)c1ccc2c(c1)OCCO2)Nc1ccc(F)c(F)c1F`?
NPYLR7 ag: 17; NPYLR7 ag max-min: 8

What do the screens show for `CCC(C(=O)N(Cc1ccco1)Cc1nc2cc(Cl)ccc2o1)c1ccccc1` (stereo not drawn)?
NPYLR7 ag: 1; NPYLR7 ag max-min: -1

What do the screens show for `N#Cc1c(-c2ccccc2)nc2c(Cc3cccs3)c(N)nn2c1N`?
NPYLR7 ag: 6; NPYLR7 ag max-min: 11

How did N#CC(CC(=O)N1CCCCCC1)C(=O)Nc1ccc(Cl)cc1 (stereo not drawn) do in these assays?
NPYLR7 ag: 0; NPYLR7 ag max-min: -2

Results for O=C(c1cccc(Br)c1)N1CCCC(OCc2ccc(F)c(F)c2)C1 (stereo not drawn) ?
NPYLR7 ag: -1; NPYLR7 ag max-min: 2

Ordered by length of the SMILES (lowest first): some entries from above
What do the screens show for `Cc1ccc(-c2nc3ccc(F)cc3n2C(C)C)cc1N`?
NPYLR7 ag: 0; NPYLR7 ag max-min: -9

What do the screens show for `O=C(CNC(=O)c1ccc2c(c1)OCCO2)Nc1ccc(F)c(F)c1F`?
NPYLR7 ag: 17; NPYLR7 ag max-min: 8

How did CCN(C(=O)c1cc(-c2c(C)nn(C)c2C)n[nH]1)c1nc(C)cs1 do in these assays?
NPYLR7 ag: 8; NPYLR7 ag max-min: 5

Further results.
What do the screens show for `O=c1c(CN2CC[C@@H](c3ccc4c(c3)OCO4)[C@H](O)C2)coc2ccccc12`?
NPYLR7 ag: 7; NPYLR7 ag max-min: 4

What do the screens show for `CCc1ccc(-c2nccn2Cc2cc(C)no2)o1`?
NPYLR7 ag: 9; NPYLR7 ag max-min: 7

Results for CN1CCN(c2cc(C(=O)NC3(c4ccccc4)CC3)ccn2)CC1 ?
NPYLR7 ag: -20; NPYLR7 ag max-min: -22

How did COC(=O)C(C)C(Sc1cc(NC(C)=O)ccc1N)C(=O)OC (stereo not drawn) do in these assays?
NPYLR7 ag: 2; NPYLR7 ag max-min: 1

What do the screens show for `CC1(C)CC(=O)C2=C(C1)NC(=O)CC2c1ccsc1` (stereo not drawn)?
NPYLR7 ag: 8; NPYLR7 ag max-min: 3

Results for c1ccc(-c2cnnc(N3CCCN(c4nc5ccccc5s4)CC3)n2)cc1 ?
NPYLR7 ag: 6; NPYLR7 ag max-min: 0

What do the screens show for `COc1ccc(-c2ncccc2NC(=O)C(C)C)c2ccc(C)nc12`?
NPYLR7 ag: 4; NPYLR7 ag max-min: 2

How did COc1ccc(-c2cc(C(=O)N3CCN(Cc4ccccn4)CC3)c3ccccc3n2)cc1OC do in these assays?
NPYLR7 ag: -3; NPYLR7 ag max-min: -4

What do the screens show for `CC(C(=O)O)c1ccc(CC2CCCC2=O)cc1` (stereo not drawn)?
NPYLR7 ag: 0&5; NPYLR7 ag max-min: -6&-46

What do the screens show for `Cc1cccc(NC(=O)c2cnc3sccn3c2=O)n1`?
NPYLR7 ag: 8; NPYLR7 ag max-min: 4

Results for CN(Cc1ccccc1)c1cc(C(C)(C)C)nc(SCc2ccc(C(=O)NCc3ccc4c(c3)OCO4)o2)n1 ?
NPYLR7 ag: 0; NPYLR7 ag max-min: 6

What do the screens show for `COCC(=O)Nc1nnc(SCc2cccc(Cl)c2)s1`?
NPYLR7 ag: -7; NPYLR7 ag max-min: 0

How did Cc1cc(-c2nnc(NC(=O)c3cccc(S(=O)(=O)C(C)C)c3)o2)nn1C do in these assays?
NPYLR7 ag: -6; NPYLR7 ag max-min: -9

Results for Cc1cc(C)n(-c2cc(NCCNC(=O)Nc3cccc(F)c3)nc(C)n2)n1 ?
NPYLR7 ag: -4; NPYLR7 ag max-min: -10

What do the screens show for `Cc1cccc(CN2CCCC(O)(CN(C)Cc3ccc4nonc4c3)C2=O)c1` (stereo not drawn)?
NPYLR7 ag: 4; NPYLR7 ag max-min: 4

How did CC(C)N=c1scc(-c2ccc(OC(F)F)cc2)n1N=Cc1cc2c(cc1[N+](=O)[O-])OCO2 do in these assays?
NPYLR7 ag: -6; NPYLR7 ag max-min: -8

What do the screens show for `O=C1CCC(C(=O)N2CCC(N3CCSCC3)CC2)CN1CCc1ccccn1` (stereo not drawn)?
NPYLR7 ag: 8&0; NPYLR7 ag max-min: 7&-3

Results for COc1ccc(-c2nc(CN3CCC(=O)NCC3C)c(C)o2)c(OC)c1C (stereo not drawn) ?
NPYLR7 ag: 2; NPYLR7 ag max-min: 0

How did CCSc1nnc2c(n1)OC(/C(C)=C/c1ccccc1)Nc1ccccc1-2 (stereo not drawn) do in these assays?
NPYLR7 ag: 5; NPYLR7 ag max-min: -1

How did Cc1ccc(-n2c(-c3ccc(Cl)cc3)cc(C(=O)N3CCN(c4cccc(Cl)c4)CC3)c2C)cc1 do in these assays?
NPYLR7 ag: -4; NPYLR7 ag max-min: 3

What do the screens show for `CS(=O)(=O)N1CCCc2cc(C(=O)NC3CCCC3)ccc21`?
NPYLR7 ag: 0; NPYLR7 ag max-min: 18

What do the screens show for `CCCS(=O)(=O)NC(=O)C1(C)CCN1C(=O)Cc1ccc(-c2ccccc2)cc1` (stereo not drawn)?
NPYLR7 ag: 0; NPYLR7 ag max-min: -1

How did COc1ccc(C#N)cc1NCc1ccc(-n2nc(C)cc2C)cc1 do in these assays?
NPYLR7 ag: 4; NPYLR7 ag max-min: 2

Results for Clc1cccc(Cl)c1NC1=NCCC1 ?
NPYLR7 ag: -8; NPYLR7 ag max-min: -14

What do the screens show for `COC(=O)C1=C(C)NC2=C(C(=O)CCC2)C1c1ccccc1C(F)(F)F` (stereo not drawn)?
NPYLR7 ag: 2; NPYLR7 ag max-min: -3

Results for Cc1csc(NC(=O)CSc2nnc(-c3ccccc3F)n2C)n1 ?
NPYLR7 ag: 5; NPYLR7 ag max-min: 2

Screening data as filed in PubChem BioAssay.
